Screens deposited in PubChem by National Center for Advancing Translational Sciences (NCATS).
Anthrax LT inh = anthrax lethal toxin internalization inhibition. AID 912. 0.67% of 70,000 active. Cells, anthrax lethal toxin internalization, FRET ratio (460/530). Potency, µM (highest dose often 40 µM), for the others: at the top dose activity change, negative = inhibition, most hits filed as inhibitors; active = well fitted falling ratio curve with the 530 nm signal flat; inconclusive = other ratio curves, or a change in one channel alone; inactive = flat curves in the ratio and both channels; the % refers to the ratio; note: % is set by controls: 0 for no effect and ±100 for the full control effect; nearly all actives have a fitted effect of over 50% in size; tested in ME-180 cells; beta-lactamase reporter
Prx2 Sm inh = blocks S. mansoni peroxiredoxin 2 enzymatic activity. S. mansoni Prx2 activity coupled to TGR/GSH (TGR is thioredoxin glutathione reductase), NADPH fluorescence loss, qHTS; some inactives read as strong as hits. Potency, µM. 0.07% of 65,000 active. AID 448; active means full or partial inhibition curve with a strong effect at the top dose; inconclusive means weaker partial or single-point curve; inactive means no accepted curve; note: series up to 57 µM; many of its hits are not listed in these tables
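qHTS, coupled TGR/Prx2 format; 15 min compound preincubation at RT; reaction started with H2O2 (2.5 mM aliquot); kinetic NADPH fluorescence decrease, ex 365/em 450 nm.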
Starred values were filed as active, the others as inactive; u = inconclusive; x = not tested or not shown; [ ] = remark or other dose. Potency is the fitted concentration of half-maximal effect. These rows are one share of the data; rates above refer to the full screens.

The line under a structure holds: Anthrax LT inh, Prx2 Sm inh
- CCOc1ccccc1NC(=O)C1CCCN(S(=O)(=O)c2c(C)[nH]c(=O)[nH]c2=O)C1 (centres undefined)
→ 20.0%, >57
- CCCCNC(=O)Oc1cccc(N2CCCC2=O)c1
→ 11.3%, x
- COc1ccccc1NCCC(=O)OCC(=O)NCc1ccco1
→ 5.6%, >57
- CCOc1ccccc1NC(=O)CSc1c(C)n[nH]c1C
→ 7.8%, >57
- COc1ccc(CCn2c(-c3ccco3)nc3nc4ccccc4nc32)cc1OC
→ -7.3%, >57
- O=C(Oc1cccc(NC(=O)c2ccco2)c1)c1cccc(S(=O)(=O)N2CCCC2)c1
→ -27.3%, >57
- COc1ccc(C(=O)N2c3ccc(F)cc3CCC2C)cc1OC (centres undefined)
→ 5.0%, >57
- Cn1c(=O)c2c(n(Cc3ccccc3)c1=O)NC(=O)C2CC(=O)N1CCc2ccccc2C1 (centres undefined)
→ -2.7%, >57
- CCOC(=O)NCc1ccc2c(c1)OCO2
→ -21.4%, >57
- COc1ccc(-c2[nH]nc3oc(=O)cc(C)c23)cc1
→ 1.9%, >57
- Cc1cc2c(c(=O)n1CCN(C)C)C(c1ccc(Cl)cc1)C(C#N)=C(N)O2 (centres undefined)
→ u, >57
- COc1ccc(NC(=O)NCCN2CCN(c3cccc(Cl)c3)CC2)cc1
→ u, >57
- O=C(O)CSCc1ccc(Cl)cc1
→ -5.6%, >57
- CCOC(=O)c1cccc(NC(=O)CSc2nnc(C3CCCCC3)n2CC)c1
→ 5.6%, >57
- O=C(Nc1ccccc1OC(F)F)c1ccccc1
→ 6.3%, >57
- CC(=O)c1cccc(NS(=O)(=O)c2c(C)n[nH]c2C)c1
→ -14.0%, >57
- CCCc1nn(CCc2ccccn2)c(N)c1CC
→ u, >57
- O=C(O)c1c(Cl)c(Cl)c(Cl)c(Cl)c1C(=O)Nc1ccc2cn[nH]c2c1
→ 0.9%[8 µM], >57
- O=S(=O)(O)c1cc(N=[N+]([O-])c2cc(S(=O)(=O)O)c3ccccc3c2)cc2ccccc12
→ -7.1%[8 µM], >57
- CCC(=O)Oc1ccc2c(C)cc(=O)oc2c1C
→ u, u
- O=C(Nc1ccc2ccccc2c1)[C@@H]1C[C@H]1[C@@H](NP(=O)(c1ccccc1)c1ccccc1)c1ccccc1
→ u, >57
- C[C@H]1C[C@H]2[C@H]3CCC4=CC(=O)C=C[C@@]4(C)[C@]3(F)[C@H](O)C[C@]2(C)[C@@]1(O)C(=O)COP(=O)(O)O
→ -6.7%[8 µM], >57
- COc1ccccc1NC1=C(C)C(=O)CC1
→ 10.4%, x
- CN1CCN(C(=O)c2cc(-c3cccc(Cl)c3)on2)CC1
→ 3.6%, >57
- Cc1cccc(N(CC(=O)NCc2ccco2)C(=O)CCC(=O)Nc2ccccn2)c1
→ 15.6%, >57
- CCN(CC)C(=O)CSc1ccccc1N
→ 4.1%, x
- CCOc1ccc(OCC(=O)Nc2ccc(S(=O)(=O)Nc3cc(C)nc(C)n3)cc2)cc1
→ -9.3%, >57
- Cc1noc(C)c1C(=O)NCCc1ccc(Cl)cc1
→ 0.0%, >57
- O=C1CN(C(=O)OCc2ccccc2)c2ccccc2N1
→ u, >57
- COC(=O)c1ccc2c(=O)sc(N3CCC(C(N)=O)CC3)nc2c1
→ 12.0%, >57

The final 4 entries of the part before are carried over, then new ones follow:
The line under a structure holds: Anthrax LT inh, Prx2 Sm inh
- CCOc1ccc(OCC(=O)Nc2ccc(S(=O)(=O)Nc3cc(C)nc(C)n3)cc2)cc1
→ -9.3%, >57
- Cc1noc(C)c1C(=O)NCCc1ccc(Cl)cc1
→ 0.0%, >57
- O=C1CN(C(=O)OCc2ccccc2)c2ccccc2N1
→ u, >57
- COC(=O)c1ccc2c(=O)sc(N3CCC(C(N)=O)CC3)nc2c1
→ 12.0%, >57
- c1ccc(CNc2ncnc3ccc(-c4ccc5c(c4)OCO5)cc23)cc1
→ u, >57
- COc1ccccc1N1C(=O)c2ccccc2NC1c1ccncc1 (centres undefined)
→ 7.9%, >57
- NC(=O)c1nnn(Cc2cc(Cl)c(C(=O)c3ccc(Cl)cc3)c(Cl)c2)c1N
→ u, >57
- Cc1csc(NC(=O)Cn2cnnn2)n1
→ 0.2%, >57
- Cc1ccc2c(c1)cc(CN(Cc1ccc3c(c1)OCO3)S(=O)(=O)c1ccccc1)c1nnnn12
→ -19.7%, >57
- COc1ccc(Cc2nnc(-c3cccc(C)c3)o2)cc1OC
→ 1.9%, >57
- c1ccc(N2CCN(c3c4c(nc5ncnn35)CCC4)CC2)cc1
→ u, >57
- Cc1ccc(N(C(C)C(=O)O)S(=O)(=O)c2c(C)n[nH]c2C)cc1 (centres undefined)
→ 1.3%, >57
- CCc1nnc(NC(=O)CSc2nnc(-c3ccccc3O)n2-c2ccc(C)cc2)s1
→ -10.6%, >57
- c1ccc(Cn2c(SCCN3CCOCC3)nnc2-c2cccnc2)cc1
→ 2.6%, >57
- CN(CCc1ccccn1)C(=O)CN(C)S(=O)(=O)c1ccc2c(c1)c(=O)n(C)c(=O)n2C
→ x, >57
- O=C(O)c1cc(=O)[nH]c(=O)[nH]1
→ 0.0%, x
- CC(C)[C@H](NC(=O)OC(C)(C)C)c1nnc(SCc2cccc(F)c2)o1
→ u, >57
- CCOC(=O)c1cccc(NC(=O)CCn2nnc3ccccc32)c1
→ 8.0%, >57
- CCC(=O)N1CCN(c2ccc(Cl)cc2NC(=O)c2ccc(Br)o2)CC1
→ 13.4%, >57
- COc1ccccc1N1CCN(C(=O)c2ccc3nc(-c4ccco4)c(-c4ccco4)nc3c2)CC1
→ u, >57
- COc1ccc(CNC(=O)C(c2cccs2)N(C(=O)c2csnn2)C2CC2)cc1 (centres undefined)
→ 7.94µM*, >57
- CS(=O)(=O)Nc1ccccc1C(=O)c1ccccc1
→ -5.4%, >57
- Nn1c(SCC(=O)NCc2ccccc2)nnc1C1CC1
→ -4.1%, >57
- COCc1nnc(NC(=O)CCCCCN2C(=O)c3ccccc3C2=O)s1
→ -2.1%, >57
- O=C(O)C1C2CCC(O2)C1C(=O)Nc1cccc(F)c1 (centres undefined)
→ -7.7%, >57
- COc1cc(Cl)cc(C#N)c1OCC(=O)O
→ 11.4%, >57
- CCOC(=O)Cc1csc(NC(=O)c2ccc(Br)s2)n1
→ -5.1%, >57
- O=C(NC1CCCC1)C1C2C=CC(C2)C1C(=O)N1CCOCC1 (centres undefined)
→ -14.2%, >57
- Nc1ccc(Sc2nnnn2-c2ccccc2)c(Cl)c1
→ -6.1%, >57
- COc1ccc(C(=O)N2CCOCC2)cc1Br
→ 5.4%, >57
- CCN(CC)S(=O)(=O)c1ccc2c(c1)c(=O)c(C(=O)NCCN(C)CCc1ccccc1)cn2C
→ -11.0%, >57
- O=C(Cn1c(S(=O)(=O)Cc2ccccc2)nc2ccccc21)N1CCCCC1
→ 0.6%, >57
- CC(C)C(NCc1c(Cl)cccc1Cl)C(=O)O (centres undefined)
→ 4.4%, >57
- O=C(NCC1COc2ccccc2O1)C1CCN(S(=O)(=O)c2cccc3nsnc23)CC1 (centres undefined)
→ 2.3%, >57

The line under a structure holds: Anthrax LT inh, Prx2 Sm inh
- CC(C)CC(c1nnnn1CC1CCCO1)N1CCN(C2CCCC2)CC1 (centres undefined)
→ u, >57
- CCCCn1c(Oc2ccc(C(=O)OC)cc2)nc2c1c(=O)n(C)c(=O)n2C
→ -7.7%, x
- CC(C)NS(=O)(=O)c1ccc(OCC(=O)N2CCN(C)CC2)cc1
→ -2.0%, >57
- Cc1c(C(=O)Nc2cccc3cccnc23)oc2ccccc12
→ -28.2%, >57
- O=C(O)c1cc(-c2ccc3c(c2)OCO3)nc2ccccc12
→ -5.3%, >57
- COC(=O)CSc1nsc(SCC(=O)OC)c1C#N
→ 0.3%, >57
- O=C(CCCCCn1c(=S)[nH]c2cc3c(cc2c1=O)OCO3)N1CCN(C(=O)c2ccco2)CC1
→ 6.1%, >57
- CCOC(=O)C1=C(C)N(C)C(C)=C(C(=O)OCC)C1c1ccccn1
→ -2.8%, >57
- COc1ccc(-n2c(SCC(=O)Nc3cc(C)on3)nc3ccc(O)cc3c2=O)cc1OC
→ -21.0%, >57
- CCN(CC)C(=O)COc1cccc2ccccc12
→ 0.1%, >57
- Cc1ccc2c(c1)N(CCC(=O)NCC1COc3ccccc3O1)C(=O)CO2 (centres undefined)
→ u, >57
- CCC(=O)[C@]12O[C@@]3(C4C(=O)OCCC41)N(CC)C(C)=C(C(=O)OC)C(c1ccccc1)N3C2=O (some centres undefined)
→ u, x
- CCC(C)Sc1nc2c(c(=O)[nH]c(=O)n2C)n1CC(O)COc1cccc2ccccc12 (centres undefined)
→ 2.4%, >57
- CCC1SC(=NC(=O)c2ccc(Cl)c(Cl)c2)NC1=O (centres undefined)
→ u, >57
- Cc1csc(N2CCc3ccccc32)n1
→ -1.9%, >57
- O=C(NCc1ccccc1)NC1(C(=O)Nc2ccc3c(c2)OCCO3)CCCCC1
→ -6.0%, >57
- O=C(Cc1c(C(=O)O)[nH]c2ccc(Cl)cc12)Nc1ccc2c(c1)OCCO2
→ 8.1%, >57
- COc1cc2c(cc1O)C[C@H]1c3c(cc(OC)c(O)c3-2)CCN1C
→ -3.2%, >57
- Nc1cc(=O)[nH]c(SCc2cccc(Cl)c2)n1
→ 11.7%, >57
- Cc1sc2ncn(CC(=O)NCCCC(=O)N3CCN(c4ncccn4)CC3)c(=O)c2c1C
→ -4.7%, >57
- CCOC(=O)CSc1nnc(-c2ccc(S(=O)(=O)N3CCC(C)CC3)cc2)o1
→ 7.3%, >57
- CC(C)c1cc(C(=O)Nc2ccc3c(c2)OCO3)no1
→ u, >57
- COc1ccc(CC(=O)Nc2oc(-c3ccccc3)c(-c3ccccc3)c2C#N)cc1OC
→ u, x
- O=C(CN1C(=O)c2ccccc2C1=O)OCC(=O)N1CCc2ccccc2C1
→ 2.5%, >57
- O=C(N1CCOCC1)N1CCN(c2nc(-c3ccccc3)cs2)CC1
→ 0.9%, >57
- COc1ccc(N2C(=O)C3CCCN3C2c2ccc(C)cc2)cc1Cl (centres undefined)
→ -0.7%, >57
- Cc1nn(Cc2ccc(Cl)cc2Cl)c(C)c1NC(=O)c1nc2n(n1)C(C(F)F)CC(C)N2 (centres undefined)
→ 14.3%, >57
- CC(=O)c1ccc(N2CCN(C(=O)CCS(=O)(=O)c3ccc(C)cc3)CC2)cc1
→ -28.0%, >57
- CC1CCCC(C)N1C(=O)CN1C(=O)C(C)(C)Oc2ccc(C(=O)NC3CCCCC3)cc21 (centres undefined)
→ 15.4%, >57
- CCOC(=O)C1CCN(C(=O)c2ccc3c(c2)OCO3)CC1
→ u, >57

The line under a structure holds: Anthrax LT inh, Prx2 Sm inh
- Cc1ccc(-c2nc(N)n(S(C)(=O)=O)n2)cc1
→ u, >57
- CC1=NOC2(C1)/C(=N/O)CCC/C2=N\O (centres undefined)
→ 8.1%, >57
- CCN1CCCC1CNC(=O)c1cc2c(C)nc3ccccc3c2o1 (centres undefined)
→ u, >57
- C=CCCN1C[C@@H]2C[C@H](C1)c1cccc(=O)n1C2
→ u, >57
- O=C(CCCC(=O)N(CC(=O)NC1CCCCC1)CC1CCCO1)Nc1ccccn1 (centres undefined)
→ 6.8%, >57
- O=C(N1CCN(c2ccccn2)CC1)N1c2ccccc2Sc2ccccc21
→ x, >57
- CC(C)NC(=O)c1ccc2c(c1)N(CC(=O)N1CCOCC1)C(=O)C(C)(C)O2
→ 5.9%, >57
- COC(=O)c1cccc(NC(=O)CSc2nnc(COc3ccccc3)n2C)c1
→ -0.2%, >57
- CC(=O)NC(C)c1nc2ccccc2n1Cc1ccccc1F (centres undefined)
→ 3.6%, >57
- CCCCC(=O)Nc1nn(C)c2nc3c(C)cccc3cc12
→ -9.0%, >57
- O=C(CN1CCN(C2CCCCC2)CC1)Nc1ccccc1N1CCCCC1
→ u, >57
- Cc1cc2cc(CN(CCCN3CCOCC3)C(=O)NC3CCCCC3)c(=O)[nH]c2cc1C
→ -14.5%, >57
- Cc1cc(C)n(-c2nc3c(c(=O)[nH]c(=O)n3C)n2CCc2ccccc2)n1
→ u, >57
- Cc1ccc(N(C(C)C(=O)O)S(=O)(=O)c2c(C)[nH]c(=O)[nH]c2=O)cc1 (centres undefined)
→ -3.5%, >57
- CCCCc1ccc(C(=O)NC(C(=O)O)C(C)C)cc1 (centres undefined)
→ -3.1%, >57
- Cc1cc(=O)n2nc(N3CCC(C(=O)NCCC4=CCCCC4)CC3)sc2n1
→ -5.8%, >57
- Cc1cc(C)cc(OCC(=O)NCC2CCCO2)c1 (centres undefined)
→ -1.1%, x
- COC(=O)c1cccc(NC(=O)C(C)N2C(=O)c3ccccc3C2=O)c1 (centres undefined)
→ -5.2%, >57
- COc1ccc(O)c(-c2[nH]ncc2C(=O)c2ccccc2)c1
→ u, >57
- CCc1ccc(NC(=O)c2cc(C)on2)cc1
→ u, >57
- COc1cccc(OCC(O)CN2CC(C)CC(C)C2)c1 (centres undefined)
→ 5.2%, >57
- CCN(CC)S(=O)(=O)c1ccc(C2CNC(=O)C2)cc1 (centres undefined)
→ 3.9%, >57
- CCOC(=O)c1oc2ccc(CNCCO)c(Cl)c2c1C
→ -7.5%, >57
- CCn1c(SCC(=O)N2CCc3ccccc3C2)nc2c1c(=O)n(C)c(=O)n2C
→ -3.9%, >57
- COc1ccc(NC(=O)CSc2nnc(-c3ccccc3C)n2C)cc1
→ -2.9%, >57
- Cc1oc(C2CC2)cc1C(=O)O
→ -5.7%, >57
- Cc1nn(CCO)c(C)c1Oc1ccccc1O
→ -14.8%, >57
